# Ecoli growth: E. coli growth inhibition; AID 1053175; hit rate 0.21% among 330,000; Escherichia coli growth, OD600, 23 h; hits give low values; OD600 absorbance (no concentration beside the values);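 active = OD600 absorbance below the run mean of sample wells minus 3.6 SD, in any replicate, cut at about 0.56 in these data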;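 also: stock transfer was 300 nL into about 60 µL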
# HNF4A DNA FP: change in binding of human HNF4 alpha to DNA; activity change, % at 10 µM; hit rate 0.3% among 360,000; P41235; AID 1224865; HNF4a-FITC DNA binding, fluorescence polarization, 1 h; in the data active = activity change above about 30%, passing the limit was not always enough;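 also: controls were the assay level and a saturating level of protein; the project sought stronger binding though the title names inhibitors; some compounds called inactive have numbers as strong as hits; positive values seem to mean higher polarization but the record does not say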
# FGF22 binding: shifts melting point of recombinant human FGF22. recombinant FGF22 thermal shift, SYPRO orange fluorescence; percent of sucrose octasulfate shift, DMSO zero. calls only at 9.99 µM. hit rate 1.5% among 340,000;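 active = melting point raised past a set limit in the mean and every replicate; three in four hits are not shown here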
# Target sequence (Q9HCT0 whole entry, looked up): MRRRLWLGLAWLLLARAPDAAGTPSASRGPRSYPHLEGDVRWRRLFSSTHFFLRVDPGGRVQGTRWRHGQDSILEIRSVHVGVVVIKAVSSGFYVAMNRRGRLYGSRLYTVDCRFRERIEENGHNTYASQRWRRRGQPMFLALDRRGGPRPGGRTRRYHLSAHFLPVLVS
# UCH37 DUB inh: inhibitors of human deubiquitinating enzyme UCH37; Q9Y5K5; purified proteasome/UCH37, Ub-AMC cleavage fluorescence; inhibition, % (no concentration beside the values); hit rate 0.33% among 330,000; AID 588478;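 active = mean of two replicates above 20%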;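 also: 0% = compound-free wells with enzyme and 100% = wells lacking proteasome; stock transfer was 100 nL into about 20 µL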
# Target sequence (Q9Y5K5 whole entry, looked up): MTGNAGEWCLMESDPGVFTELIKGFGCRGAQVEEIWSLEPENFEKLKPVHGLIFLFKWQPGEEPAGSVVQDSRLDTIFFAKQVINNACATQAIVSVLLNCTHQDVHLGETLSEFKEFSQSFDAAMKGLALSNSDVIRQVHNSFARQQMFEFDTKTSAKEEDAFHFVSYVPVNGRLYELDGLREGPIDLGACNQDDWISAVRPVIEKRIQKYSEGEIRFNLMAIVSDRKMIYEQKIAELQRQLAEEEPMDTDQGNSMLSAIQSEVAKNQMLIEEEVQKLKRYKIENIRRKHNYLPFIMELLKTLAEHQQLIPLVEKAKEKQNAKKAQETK
#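 assay system = human UCH37 enzyme supplied as purified proteasome complex | amount = proteasome at 0.15 nM in the dispensed enzyme solution | schedule = 30 min compound-proteasome preincubation then 25 min substrate reaction, room temperature | measured by = fluorescence, ex 355 nm, em 460 nm | benchmarks = no-proteasome wells (full inhibition) and compound-free wells (no inhibition)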
# Ecoli rRNA inh: inhibitors of bacterial rRNA selective over humanized ribosomes; E. coli WT GFP vs humanized-ribosome RFP mutants, fluorescence, 24 h; hits give low values; DMSO median 0, no signal -100; GFP signal change (wild-type ribosome), % (concentration not given with the values); hit rate 1.6% among 350,000;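 active = significant combined selectivity score with lowered wild-type GFP, culture density cut under 30%, mutant RFP and density less affected; inactive = any of these conditions unmet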; also: one replicate is shown; some compounds called inactive have numbers as strong as hits
# ALR inh: human ALR oxidase inhibition via reduced H2O2; P55789; purified ALR, DTT oxidation, H2O2 HRP-luminol luminescence; inhibition, % (no concentration beside the values); hit rate 3.8% among 290,000; AID 485317;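 active = mean and each replicate at 75% or more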;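 also: stock transfer was 7.5 nL into about 7.5 µL; 0% = neutral wells and 100% = wells with inactivated enzyme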
# B2AR ag: activates human beta-2 adrenergic receptor causing internalization | P07550 | Am2.2-beta2AR cells, FAP receptor internalization, flow cytometry; reference of the scale not given here | response, % (concentration not given with the values) | hit rate 0.43% among 340,000;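 active = response above a set limit, near 3 SD of response in nonfluorescent compounds, cut at about 42% in these data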;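 also: stock transfer was 100 nL into about 11 µL; a reference agonist was the positive control; negative values mostly stem from fluorescent compounds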
# Target sequence (P07550 whole entry, looked up): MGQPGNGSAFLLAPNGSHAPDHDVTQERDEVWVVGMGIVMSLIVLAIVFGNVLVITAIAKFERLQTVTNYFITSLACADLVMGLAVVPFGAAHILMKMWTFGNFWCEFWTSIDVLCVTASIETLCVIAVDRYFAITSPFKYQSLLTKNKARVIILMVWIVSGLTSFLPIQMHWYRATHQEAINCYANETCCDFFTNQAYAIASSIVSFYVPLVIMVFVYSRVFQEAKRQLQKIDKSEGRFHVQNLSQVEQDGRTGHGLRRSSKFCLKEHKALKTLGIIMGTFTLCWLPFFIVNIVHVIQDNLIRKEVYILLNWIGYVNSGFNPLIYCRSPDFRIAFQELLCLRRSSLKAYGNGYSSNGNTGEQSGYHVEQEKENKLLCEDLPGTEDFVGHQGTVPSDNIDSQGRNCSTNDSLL
# Ecoli rRNA inh OD600: also measured in Ecoli rRNA inh; calls as there; OD600 change, %; measured here: OD600 growth;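 optical density of the mix in the first replicate; 0 = DMSO median and -100 = no signal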
# Ecoli rRNA inh RFP: further read-out of Ecoli rRNA inh, marked with its call; RFP signal change, %; measured here: RFP humanized mutant strains;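 first replicate; 0 = DMSO median and -100 = no signal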
# * hit, by the source's call; i = inactive; x = no result given. Only part of the results is shown (hit frequency here may not be typical).
canonical_smiles,Ecoli growth,HNF4A DNA FP,FGF22 binding,UCH37 DUB inh,Ecoli rRNA inh,Ecoli rRNA inh OD600,Ecoli rRNA inh RFP,ALR inh,B2AR ag
CC(Sc1nnc(COc2ccccc2)n1-c1ccccc1)C(=O)O (stereo unspecified),x,-0.1,x,x,1,4,-2.2,1,-4
COc1ccccc1N1CCN(C(=O)c2ccc(NC(C)=O)cc2)CC1,0.78,-1.6,x,3.9,x,x,x,18,1
C/C=C/Cn1cccc(C(=O)Nc2ccc(OC)cc2)c1=O,0.66,2.0,i,7.3,7,9,-1.0,-2,0
Cc1ccccc1OCC(=O)N(CC(C)C)c1c(N)n(CC(C)C)c(=O)[nH]c1=O,0.65,1.9,i,1.2,10,12,-5.3,7,4
Cn1cnc2nc(Cl)nc(Cl)c21,0.69,-2.5,i,3.8,7,16,5.0,x,62*
Cc1ccc(C)c(NC(=O)c2cc[n+](C)cc2)c1,0.64,3.9,i,1.6,16,5,-0.6,0,-3
Cc1cc2n(n1)C(c1ccccc1Cl)Nc1ccccc1-2 (stereo unspecified),0.7,0.5,x,1.2,-32,-42,-16,98*,-9
O=C(O)c1ccc(N2C(=O)Nc3ccccc3N2O)cc1,0.64,3.6,i,0.1,13,6,-3.3,-6,2
CC1(C)CN(Cc2ccccc2)C(=O)[C@H]1CC(=O)Nc1ccccc1,x,-2.2,i,x,-17,-14,-0.9,x,x
CCn1c(SCc2nc(-c3ccccc3)no2)nnc1-c1ccco1,0.67,1.4,x,4.1,x,x,x,-12,-8
O=C(NC1CC(=O)N(c2cccc(F)c2)C1)C(=O)c1c[nH]c2ccccc12 (stereo unspecified),0.69,0.2,i,3.6,4,17,-0.3,-1,2
Cc1ccc(S(=O)(=O)N2C[C@H]3[C@H]4C(=O)N(c5ccccc5)C(=O)[C@H]4C[C@H](OC(=O)NCc4ccco4)[C@@]3(O)C2)cc1,x,-7.3,x,x,6,10,-2.4,x,x
COc1ccccc1CNC(=O)c1ccc(OC(C)C)cc1,0.69,-0.8,i,2.3,-6,-14,-2.0,-4,8
COc1ccc(-c2nc3c(c4nnc(SC(C)C(=O)Nc5ccc(C)cc5)n24)COC(C)(C)C3)cc1 (stereo unspecified),0.71,2.8,i,-31,14,7,3.3,-1,-12
Nc1nc(SCc2ccc(F)cc2)ns1,0.68,2.3,x,2.0,-14,-1,-0.2,98*,2
Cc1ccc(N2CCN(Cc3ccccc3)CC2=O)c(C)c1,0.67,0.6,i,2.3,13,9,0.3,-3,14
CC(=O)Nc1cc(-n2cnnn2)ccc1C,0.7,-0.3,x,5.2,14,13,-0.9,-19,1
O=C(Nc1nc2ccc(Cl)cc2s1)[C@@H]1CCCN1C(=O)c1cccs1,x,1.6,i,2.2,39,-24,-11,-3,-6
COc1ccccc1NC(CC(=O)c1ccccc1)C(=O)OCC(=O)c1ccc(C)c(C)c1 (stereo unspecified),0.75,2.4,i,4.4,10,17,0.5,-3,0
Nc1ccc(CN2CCCCCC2)cc1,0.68,-1.1,x,2.3,x,x,x,8,2
O=C(CCC1CCCN(C(=O)c2ccc3c(c2)OCCO3)C1)NCc1ccccc1F (stereo unspecified),0.71,-1.1,i,-1.3,8,6,4.7,-8,-3
CCCN1CNC(=S)N(c2cc(C)ccc2C)C1,0.62,6.4,x,1.3,x,x,x,-7,9
CC(C)CC(=O)Nc1ccnn1C1CCN(C(=O)c2ccc(Cl)cc2F)CC1,0.66,-0.3,i,-1.8,14,14,2.9,-8,-3
CC(C)Cn1c(SCc2nnc(-c3cccs3)o2)nc(O)cc1=O,0.75,3.7,x,3.0,x,x,x,98*,-17
Cc1ccc(NC(=O)CSCC(=O)N(C)CC(=O)Nc2ccccc2C(F)(F)F)cc1,0.68,-0.9,i,4.6,0,1,1.4,x,-7
CN(C)CCNc1cccc2sc3ccc(O)cc3c(=O)c12,x,27,i,x,-55,-78,-17,x,x
Cc1nnc(SCC(=O)NC2CCCC2)n1C(C)C,0.69,-45,i,0.1,8,16,2.0,0,-4
OC(CNCc1ccc(Cl)cc1)C(F)(F)F (stereo unspecified),0.74,-3.3,i,1.6,13,17,0.9,-21,6
O=C(O)c1cc(C(=O)C2CCCCC2)c[nH]1,0.7,1.1,i,2.3,23,18,-2.7,3,-2
CCn1c(CSCc2ccccc2)n[nH]c1=S,0.66,2.9,i,0.0,9,5,1.5,0,15
CCN(CC)c1nc(N)c(C#N)c(CC#N)c1C#N,0.71,3.3,i,-0.2,-10,-9,-4.1,11,0
O=C(NCc1ccco1)C1CCN(C(=O)c2ccc([N+](=O)[O-])cc2)CC1,0.7,-1.8,i,0.4,4,8,4.2,-2,1
Cc1cc(C(=O)CC#N)c(C)n1-c1ccc(OC(F)F)cc1,0.69,0.0,x,-0.4,x,x,x,62,-3
O=C(/C=C/c1ccc(-c2ccccc2[N+](=O)[O-])o1)c1ccco1,0.65,-15,i,1.8,-24,-20,1.5,-27,0
Cc1ccc(NC(=O)COC(=O)C2CC(=O)N(Cc3ccccc3)C2)cc1S(=O)(=O)N(C)C (stereo unspecified),0.69,-1.6,i,1.1,12,12,2.4,0,-4
COCC(=O)NC(C)c1nc2ccccc2[nH]1 (stereo unspecified),0.68,-2.5,x,4.0,x,x,x,-2,-9
CC(=O)Nc1ccc(SC[C@H](Cc2ccccc2)N2CCN(CC(C)C)CCC2=O)cc1,x,0.3,i,3.2,1,-11,-4.8,x,4
CCS(=O)(=O)c1ncc(Cl)c(C(=O)Nc2ccc(S(=O)(=O)N3CCC(C)CC3)cc2)n1,x,-1.9,i,x,-8,-22,4.8,66,24
O=C(CSc1nccn1Cc1ccco1)Nc1ccccc1C(F)(F)F,0.71,-1.9,i,2.1,x,x,x,-2,1
CCC1SC(=Nc2cccc(C)c2)NC1=O (stereo unspecified),0.68,-2.8,i,-0.5,3,2,0.5,1,2
COc1ccc(CNC(=O)c2ccc(CN3CCOCC3)cc2)cc1,0.7,2.1,x,0.5,x,x,x,-12,3
CNC(=O)C1CC(=O)N(c2ccc(F)c(Cl)c2)C1 (stereo unspecified),0.71,-2.0,x,0.0,x,x,x,-2,5
Cc1ccc(NC(=O)CSc2nc3ccccc3c(=O)n2CCCC(=O)NCC2CCCO2)cc1 (stereo unspecified),0.71,-3.2,i,5.4,18,11,-0.2,-1,-14
CCOC(=O)C1CCCN(C(=O)c2ccc(CS(=O)(=O)c3ccc(C)cc3)o2)C1 (stereo unspecified),0.77,-12,x,4.8,x,x,x,55,0
Cc1cccc(NC(=O)c2cc3ccccc3nc2C)c1,0.72,6.4,i,2.8,12,3,0.7,-1,7
C[C@H](NC(=O)C1CCC(CNC(=O)[C@@H]2CCCN2C(=O)OC(C)(C)C)CC1)C(=O)O (stereo partly specified),0.7,-2.8,i,4.4,17,21,-2.8,-22,-7
Cc1c(C(=O)N/N=C/C(C)C)[nH]c2ccc([N+](=O)[O-])cc12,x,0.8,i,x,-27,-22,-3.6,-9,-2
COc1cccc(C2C(C(=O)c3ccc(C)o3)=C(O)C(=O)N2CCN2CCOCC2)c1OC (stereo unspecified),0.7,-3.3,i,7.1,16,4,3.2,-2,-2
O=C(Nc1ccccc1C(=O)Nc1ccccn1)c1ccccc1F,0.7,0.6,i,4.5,20,17,0.0,2,1
CC1C2NC(=O)N(Cc3ccccc3)C1(C)Oc1ccccc12 (stereo unspecified),0.65,-2.3,i,0.3,2,-8,2.3,-4,-12

# Full records as entered above. Order of screens: Ecoli growth	HNF4A DNA FP	FGF22 binding	UCH37 DUB inh	Ecoli rRNA inh	Ecoli rRNA inh OD600	Ecoli rRNA inh RFP	ALR inh	B2AR ag
# O=C(O)c1cc(C(=O)C2CCCCC2)c[nH]1 as listed: 0.7	1.1	i	2.3	23	18	-2.7	3	-2
# CC1C2NC(=O)N(Cc3ccccc3)C1(C)Oc1ccccc12 (stereo unspecified) as listed: 0.65	-2.3	i	0.3	2	-8	2.3	-4	-12
# Cc1cccc(NC(=O)c2cc3ccccc3nc2C)c1 as listed: 0.72	6.4	i	2.8	12	3	0.7	-1	7
# O=C(NCc1ccco1)C1CCN(C(=O)c2ccc([N+](=O)[O-])cc2)CC1 as listed: 0.7	-1.8	i	0.4	4	8	4.2	-2	1
# CCN(CC)c1nc(N)c(C#N)c(CC#N)c1C#N as listed: 0.71	3.3	i	-0.2	-10	-9	-4.1	11	0

# More records:
canonical_smiles,Ecoli growth,HNF4A DNA FP,FGF22 binding,UCH37 DUB inh,Ecoli rRNA inh,Ecoli rRNA inh OD600,Ecoli rRNA inh RFP,ALR inh,B2AR ag
CCc1ccccc1NC(=O)CSc1nc2[nH]c(=O)cc(O)c2s1,0.62,1.6,i,4.7,6,13,1.1,-12,6
CC(OC(=O)C1CC(=O)N(Cc2ccccc2)C1)C(=O)Nc1ccc(F)cc1Cl (stereo unspecified),0.72,-1.6,i,0.7,-3,4,-1.2,2,8
Nc1nonc1C(=O)OCC(=O)N1CCCCC1,0.8,-3.1,x,-1.2,x,x,x,-1,3
COC(=O)CC(NC(=O)c1cccs1)c1ccc(OC)c(OC)c1 (stereo unspecified),0.71,1.9,i,3.6,12,7,3.0,-7,10
O=C(COC(=O)c1ccc(F)cc1)NCC1COc2ccccc2O1 (stereo unspecified),0.69,-4.0,i,3.0,2,4,2.0,x,-2
COc1cccc(CNC(=O)CNC(=S)N(Cc2ccccc2)Cc2ccccc2F)c1,0.71,-3.6,i,3.8,-25,-37,2.9,x,3
CN(C(=O)c1ccccc1)c1ccccc1C(=O)NCCc1ccccc1,0.68,-3.6,i,0.8,7,1,3.7,4,-4
COc1ccc(CNCCS(=O)(=O)NC2CCCCC2)cc1,x,-2.3,i,x,-2,9,-3.5,x,-3
COc1cc(/C=N/NC(=O)c2ccncc2)ccc1OC(=O)c1ccc([N+](=O)[O-])cc1,x,-0.5,x,x,x,x,x,33,3
O=C(CN1CCOCC1)N/N=C/c1c(O)ccc2ccccc12,x,-0.1,i,x,-34,-51,-3.7,12,8
COc1ccc(-n2nc(C(=O)Nc3ccc4c(c3)OCO4)c3ccccc3c2=O)cc1,0.73,-0.7,x,4.0,x,x,x,-1,-10
CS(=O)(=O)Oc1ccc(Br)cc1/C=C1/N=C(c2ccco2)OC1=O,0.7,2.4,x,-0.1,x,x,x,1,5
O=C(c1cc(-c2ccccn2)nc2c(Cl)cccc12)N1CCN(C(=O)C2CCCO2)CC1 (stereo unspecified),0.74,0.4,x,0.0,x,x,x,-5,4
CN(C)CCCN(C(=O)CCc1ccccc1)c1nc2ccc(Br)cc2s1,0.58,0.2,i,3.5,-57,-82,-26,-14,44*
CC1(C(=O)NS(=O)(=O)c2cccs2)CCN1C(=O)c1ccccc1 (stereo unspecified),x,1.1,i,x,13,24,11,x,x
O=C(COc1ccc2ccc(=O)oc2c1)NCCc1c[nH]c2ccc(F)cc12,0.68,4.1,i,-32,1,1,0.0,25,-3
CN1C(C(=O)NCC2CC2)CC2Cn3c(nc4cc(Cl)c(Cl)cc43)C21 (stereo unspecified),0.64,2.9,i,-1.0,-5,-1,3.1,x,-5
C/C=C/c1ccc(OCC(=O)OCC2=C(C(=O)OCC)C(C)NC(=O)N2)c(OC)c1 (stereo unspecified),0.62,-2.5,i,0.7,1,-4,2.4,1,-4
